RN4220 kill = S. aureus RN4220 growth inhibition; OD600, 16 h; inhibition, % (test concentration not listed); 330,000 tested, 0.33% active;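 active = z-score of -3 or lower and OD600 up to 0.18 on both plates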;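 also: plate controls were untreated cells for no effect and reference antibiotic for full effect; stock transfer was 100 nL into about 80 µL; one replicate is shown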
Bead autofluor = compound fluorescence in toxin protease inhibitor counterscreen | compound autofluorescence counterscreen, microsphere flow cytometry; stronger effect = higher value | fluorescence intensity (test concentration not listed) | 360,000 tested, 3.1% active;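 active = at least 3 SD above the mean of all compounds, about 16000 in these data; inconclusive = too few beads counted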;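 also: 100 nL of 1 mM stock went into each well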
BJeLR viability = BJeLR cell viability loss | BJeLR (HRASV12) viability, CellTiter-Glo ATP luminescence, 48 h; reference of the scale not given here | inhibition, % (no concentration beside the values) | 300,000 tested, 0.17% active | AID 1554;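 active = replicate mean above 50%; inconclusive = above 50% but judged a plate artefact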;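 also: 50 nL library stock added to about 25 µL; numbers are from one replicate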
ugtP null kill = growth inhibition of S. aureus ugtP deletion strain. S. aureus RN4220 ugtP deletion, OD600 growth, 16 h; some inactives read as strong as hits. growth inhibition, % (test concentration not listed). 330,000 tested, 0.54% active;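 active = z-score under -3 and OD600 up to 0.15 on both plates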;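 also: plate controls were untreated wells for no effect and antibiotic for full effect; wells of about 80 µL received 100 nL stock; the first replicate is given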
PrP 5UTR inh = inhibition of PrP 5' UTR reporter expression; 340,000 tested, 0.35% active; inhibition, % (test concentration not listed); cell-based PrP 5' UTR mRNA reporter, plate reader;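 active = every replicate at 50% or more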;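 also: 0 = median of the neutral control wells; tested in H4 reporter cells; numbers are from one replicate; inactives centre near -14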
Mtb hypoxia rep = reduces hypoxia-regulated biosensor signal in M. tuberculosis. M. tuberculosis hypoxia-regulated fluorescent reporter, fluorescence. fluorescence inhibition, % (no concentration beside the values). 300,000 tested, 0.1% active;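 active = 35 to 45% if threefold the growth effect, above 45% if 1.5-fold the growth effect; inactive = the rest, general growth blockers included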;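 also: wells of about 50 µL received 100 nL stock; 0% = vehicle wells and 100% = reference inhibitor wells; whole bacteria with a GFP reporter of the hypoxia response; strong numbers were not always called active; many hits fall short of the cut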
Mtb hypoxia rep growth = also measured in Mtb hypoxia rep; calls as there; growth inhibition, %; measured here: M. tuberculosis growth (absorbance);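 0% = vehicle and 100% = reference antibiotic; read after six days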
Numbers without * were called inactive; ? = inconclusive; · = no result given; & = joins results of further samples.

Preview (5 entries):
SMILES	RN4220 kill	Bead autofluor	BJeLR viability	ugtP null kill	PrP 5UTR inh	Mtb hypoxia rep	Mtb hypoxia rep growth
COC(=O)c1c(C)noc1-c1cc(C)on1	5.7	2153	9	6	-17	·	·
COc1cc(S(=O)(=O)N2CCN=C2c2ccccc2)ccc1Cl	8.5	6256	-14	-5	-17	4	2
S=c1[nH]nc(C2CCCCC2)n1N=Cc1ccco1	5.9	·	·	-7	·	6	5
CCCOc1cccc(C(=O)NC(=S)Nc2ccccc2)c1	5.3	2532	1	3	-46	3	23
CCCNC(=O)C1(CC2CC(c3ccccc3)=NO2)CCN(C(=O)OC(C)(C)C)CC1 (configuration not stated)	1.0	4618	11	1	-9	3	8

Main list, previewed entries included:
SMILES	RN4220 kill	Bead autofluor	BJeLR viability	ugtP null kill	PrP 5UTR inh	Mtb hypoxia rep	Mtb hypoxia rep growth
COC(=O)c1c(C)noc1-c1cc(C)on1	5.7	2153	9	6	-17	·	·
COc1cc(S(=O)(=O)N2CCN=C2c2ccccc2)ccc1Cl	8.5	6256	-14	-5	-17	4	2
S=c1[nH]nc(C2CCCCC2)n1N=Cc1ccco1	5.9	·	·	-7	·	6	5
CCCOc1cccc(C(=O)NC(=S)Nc2ccccc2)c1	5.3	2532	1	3	-46	3	23
CCCNC(=O)C1(CC2CC(c3ccccc3)=NO2)CCN(C(=O)OC(C)(C)C)CC1 (configuration not stated)	1.0	4618	11	1	-9	3	8
CCOC(=O)C1=C(N)OC2=C(C(=O)CC(C)(C)C2)C1c1ccc(CC)s1 (configuration not stated)	1.0	4648	4	20	-25	9	-3
CCOc1ccccc1C(=O)Nc1cccc2cccnc12	-11	·	-9	-10	-4	14	6
CCOC(=O)c1cc2n(c1N)-c1ccccc1C2=O	1.7	5144	-9	-3	-25	-5	-10
CCC(C)=NNC(=S)NCc1ccco1	4.1	·	·	4	·	7	3
CN(CC(=O)Nc1ccccc1Cl)C(=O)c1cccc(S(=O)(=O)N2CCN(Cc3ccccc3)CC2)c1	3.7	3463	-1	5	-8	-5	1
Cc1ccc(S(=O)(=O)N[C@@H](CC(C)C)C(=O)N2CCC(C(=O)N[C@H](C(=O)O)C(C)C)CC2)cc1	-0.7	5869	-3	0	-21	·	·
O=C(Nc1ccnn1C1CCN(Cc2ccccc2)CC1)C1CCOC1 (configuration not stated)	-0.6	7241	-4	-1	-11	-1	-1
O=C(N/N=C/c1ccc(F)cc1)c1sccc1OCc1ccc(F)cc1	·	3057	-2	·	-31	·	·
CN(C(=O)c1ccc(F)c(S(=O)(=O)N2CCOCC2)c1)C1CCCCC1	2.2	8157	·	-1	-23	2	-4
CS(=O)(=O)N(CCCC(=O)N1CCCCCC1)c1cccc(Cl)c1	3.0	3808	-4	4	-20	3	4
O=C(NCCCn1ccnc1)/C(=C/c1ccco1)NC(=O)c1ccccc1	3.5	3669	-6	-3	-13	7	14
COc1ccc(-n2c(-c3ccc(Cl)cc3)c[n+]3c2CCCCC3)cc1	0.9	4969	9	0	-25	6	17
CCOC(=O)C1CCCN(C(=O)c2cccc([N+](=O)[O-])c2C)C1 (configuration not stated)	0.4	4992	-2	2	-16	-5	8
COC(=O)C1=C(c2cc3ccccc3o2)C[C@@H]2CC[C@H]1N2C(=O)N1CCC(O)CC1	·	3755	-16	·	-11	·	·
CCN(CC)S(=O)(=O)c1ccc(Cl)c(NC(=O)CCCCl)c1	2.7	5261	-5	10	-11	13	1

Quoted at random: three compounds from above, in no set order.
SMILES	RN4220 kill	Bead autofluor	BJeLR viability	ugtP null kill	PrP 5UTR inh	Mtb hypoxia rep	Mtb hypoxia rep growth
COC(=O)C1=C(c2cc3ccccc3o2)C[C@@H]2CC[C@H]1N2C(=O)N1CCC(O)CC1	·	3755	-16	·	-11	·	·
CS(=O)(=O)N(CCCC(=O)N1CCCCCC1)c1cccc(Cl)c1	3.0	3808	-4	4	-20	3	4
CCOC(=O)C1=C(N)OC2=C(C(=O)CC(C)(C)C2)C1c1ccc(CC)s1 (configuration not stated)	1.0	4648	4	20	-25	9	-3

Next compounds follow:
SMILES	RN4220 kill	Bead autofluor	BJeLR viability	ugtP null kill	PrP 5UTR inh	Mtb hypoxia rep	Mtb hypoxia rep growth
COc1ccccc1-c1nnc(SCC(=O)Nc2cccnc2Cl)n1C	5.9	4194	·	14	-29	9	8
COc1cc(OC)cc(C(=O)N=c2sc3ccccc3n2C)c1	0.3	4595	2	6	-34	-4	3
CCOc1ccc2nc(N3C(=O)C(O)=C(C(=O)c4ccco4)C3c3ccco3)sc2c1 (configuration not stated)	-4.9	8619	·	11	-24	9	1
COc1ccc(CN(C(=O)c2snc(C(N)=O)c2N)C(C(=O)NC2CCCC2)c2ccco2)cc1 (configuration not stated)	4.1	3980	-2	7	-17	10	-5
CCN(CC)C(=O)c1sc2nc(-c3cccs3)cc(-c3ccc(Cl)cc3)c2c1N	0.2	4742	4	-5	-16	-2	3
S=C(c1ccc(-c2cc(Cl)ccc2Cl)o1)N1CCCCC1	7.5	2109	-16	4	-19	7	-3
COc1ccc(C(=O)NCc2cc3ccccc3n2C)cc1	-1.8	3245	0	12	-36	8	5
CC1CCCCN1C(=O)Cn1cc(C(=O)c2ccco2)c2ccccc21 (configuration not stated)	4.3	2922	-9	-2	-17	4	7
COCC(=O)OCc1cc2cccc(C)c2[nH]c1=O	2.7	5246	3	4	-10	-4	9
CC(C)c1cccc(C(C)C)c1OCCn1ccnc1	6.3	3302	9	-3	-11	11	16
CCCC12CN(C(=O)c3ccco3)CC(CCC)(CN(C(=O)c3ccco3)C1)C2=O	6.7	4884	10	10	0	0	-2
C#CCOCCOCCOCCNc1nc(N2CCN(C(=O)CCCCCCCCCCNC(=O)[C@H](CO)n3cc(CCCSC)nn3)CC2)nc(N2CCN(C(=O)CCCCCCCCCCNC(=O)[C@H](CO)n3cc(CCCSC)nn3)CC2)n1	·	4092	-3	·	-17	·	·
O=C(CN1C(=O)C2C3C=CC(C3)C2C1=O)NCC1COc2ccccc2O1 (configuration not stated)	9.9	3528	2	7	-33	·	·
CC(C)NC(=O)c1ccc(CNC(=O)OCC(F)(F)F)cc1	0.4	3971	5	4	-21	·	·
CC1CCN(Cc2c(C(=O)N3CCc4ccccc4C3)nc3ccc(Cl)cn23)CC1	2.4	4756	-2	17	-17	1	-1
O=C(CCNC(=O)c1ccc(Cl)cc1)Nc1ccccc1N1CCCC1	·	?	6	·	-7	·	·
COc1ccc(OCC(=O)N2CCN(C(=O)COc3ccccc3)CC2)cc1	-5.3	4899	-3	-2	-7	7	13
O=C(N=C1SC2CS(=O)(=O)CC2N1c1ccc(OC(F)(F)F)cc1)C1CC1 (configuration not stated)	1.2	5246	-3	0	-14	-3	-1
Cc1cccc(C2Nc3ccccc3C(=O)N2CCc2ccccc2)n1 (configuration not stated)	-2.4	9542	-2	5	-8	7	9
CC(=O)NCCn1c(SCC(=O)NCc2ccco2)nc2ccccc2c1=O	5.7	17328*	6	14	-8	0	-4
Cc1ccc([C@@H]2CC=C(C(=O)O)[C@H](c3ccc(C(C)(C)C)cc3)N2S(=O)(=O)c2ccc(C)cc2)cc1	45	3772	·	-1	1	-1	0
O=c1nc2scc(-c3ccccc3)n2c2ccccc12	-5.6	8422	-8	91*	-7	1	2
CCOc1ccc(N/C=C/C(=O)c2ccc3ccccc3c2)c([N+](=O)[O-])c1	0.8	16459*	2	7	-63	8	-2
COc1cccc(CN(C)CC(=O)NC(=O)NCc2ccco2)c1	0.2	10278	1	-3	-21	7	2
O=[N+]([O-])c1cccc(Oc2ncccc2[N+](=O)[O-])c1	4.7	3687	·	6	-29	17	14
CC1CCCC(C)N1C(=O)CSc1nnc(-c2c[nH]c3ccccc23)o1 (configuration not stated)	5.6	10270	-1	-4	-24	16	5
Cc1ccc(-c2cc(C(F)(F)F)n3ncc(C(=O)N4CCCCC4c4cccnc4)c3n2)cc1 (configuration not stated)	15	3943	-3	-76	-5	12	0
COC(=O)c1c(NC(=O)CN2C(=O)NC3(CCC(C(C)(C)C)CC3)C2=O)sc2c1CCCCC2 (configuration not stated)	2.3	2396	-6	-18	1	4	4
COc1ccc(N2CCN(CC(O)COc3cc(C)cc(C)c3)CC2)cc1 (configuration not stated)	3.6	3670	0	6	-11	4	1
CC1CCCCN1C(=O)c1cccc(NC2=C(Cl)C(=O)N(Cc3ccccc3)C2=O)c1 (configuration not stated)	4.4	6517	·	1	-20	6	-4
CSCC(=O)NS(=O)(=O)c1ccc(C)cc1	6.3	4107	-8	1	-3	5	13
CC(=O)c1ccc(NC(=O)C(C)Sc2nnc(-c3ccncc3)n2C2CC2)cc1 (configuration not stated)	3.4	4043	·	-2	-15	-4	6
Cc1ccnc2nc(C(=O)OCC(=O)c3c[nH]c4ccccc34)nn12	0.8	5955	-8	-2	-30	-15	-7
CCOc1cc(C=C2C(=O)c3ccccc3C2=O)ccc1OCC(=O)Nc1ccc(C)cc1	2.9	1983	2	5	-14	12	-2
COc1ccc(-c2noc(COc3ccc(Cl)c(C)c3)n2)cc1	2.2	5988	4	5	-5	1	-5
CCCCN1C(=O)C(O)=C(C(C)=O)C1c1ccccc1 (configuration not stated)	-0.2	4654	-2	7	-14	·	·
O=C(CSCc1ccc(Cl)cc1)Nc1cc([N+](=O)[O-])ccc1O	62	4828	15	49	-4	-2	-2
CN1C(=O)CSc2ccc(NC(=O)N3CCOCC3)cc21	0.0	7686	2	5	-9	9	5
O=C(NCCCn1ccnc1)c1ccc(F)cc1	7.0	4098	-3	14	-23	5	7
O=C1C(Cl)=C(N2CCCCC2)C(=O)C(Cl)=C1c1cnc(N2CCCCC2)s1	-4.8	14860	-32	-13	15	5	7
Cc1ccc2nc(SC(C(=O)c3ccccc3)c3ccccc3)nc(C)c2c1 (configuration not stated)	11	6538	-3	9	-8	7	0
COc1ccc(Cn2c(-c3ccc(OC)cc3)nc3c(c(=O)c4ccccc4n3C)c2=O)cc1	1.1	·	5	-2	·	12	10
Nc1ccc(C(=O)c2cccs2)cc1	·	2564	-13	·	-43	·	·
Cc1cc(C)cc(N(CCC#N)C(=O)COC(=O)Cn2[nH]c(=O)c3ccccc3c2=O)c1	-0.9	3617	·	0	1	0	2
Cc1cc(C)cc(NC(=O)CSc2ncc(S(=O)(=O)c3ccccc3)c(=O)[nH]2)c1	0.5	·	-5	0	·	17	0
Cc1cc(-c2n[nH]c(=S)n2-c2ccccc2)nn1C	2.5	2490	8	4	-12	11	17
Cc1ccc(Nc2ccc([N+](=O)[O-])nc2[N+](=O)[O-])cc1	34	6853	-6	72	-7	-6	11
CC(=O)c1cc2c(cc1NC(=O)CN1CCCCC1C)OCO2 (configuration not stated)	3.3	9420	-2	0	-10	8	1
Cc1c(NC(=O)c2ccc3ncccc3c2)c(=O)n(-c2ccccc2)n1C	0.5	3696	6	2	-3	14	7
Cc1ccccc1-n1c(O)c(/C=N/c2nccs2)c(=O)[nH]c1=O	5.0	4911&2327	-5&5	8	-14&-10	18	4
O=C(OCCN1C(=O)c2cccc3c(N4CCOCC4)ccc(c23)C1=O)c1ccc(Cl)cc1Cl	1.2	4710	16	-1	9	9	7
CC1CCC(NC(=O)CCS(=O)(=O)c2ccc3c(c2)CCN3C(=O)C2CC2)CC1 (configuration not stated)	2.7	4510	-12	9	-2	-4	-2
CCOC(=O)N1CCC(NC(=O)CS(=O)(=O)Cc2nc(-c3ccc(OC)cc3)oc2C)CC1	1.7	5741	-9	6	-3	-5	-1
Cc1ccc(N(CC(=O)NCC(O)c2ccccc2)S(=O)(=O)c2ccc(C)cc2)cc1 (configuration not stated)	0.0	4519	4	-5	1	-6	1
O=c1[nH]c(=O)n(CCC2=CCCCC2)c(O)c1C=Nc1cccc(F)c1	1.1	9192	-6	-5	-8	-5	10
CCn1c2ccccc2c2nn(C)c(=N)nc21	3.2	4196	10	1	-19	7	-2
CCCCSP1(=S)NCCCO1 (configuration not stated)	1.7	3248	2	-6	2	15	14
Cc1ccc(C(C)C)cc1S(=O)(=O)NCc1cccnc1	4.3	11052	0	-3	-11	3	-1
CCCOC(=O)NC1CCS(=O)(=O)C1 (configuration not stated)	8.7	8280	-6	0	-19	2	4
CCCCCCNC(=O)CNC(=S)N(Cc1cccs1)C1CCCCC1	-1.3	3670	-2	-32	-16	-18	3
CC(C)c1nc2oc3c(N(C)CCO)ncnc3c2c2c1CCC2	1.9	5846	-11	16	-34	13	0
COc1ccc(S(=O)(=O)Nc2ccccc2C(=O)N2CCOCC2)cc1C	3.0	3798	-6	0	-3	-12	1
